BJeLR viability = MLPCN primary cell-based screen for lethality selective to Ras in HRASV12 cells. BJeLR (HRASV12) viability, CellTiter-Glo ATP luminescence, 48 h; reference of the scale not given here. inhibition, % (concentration not given with the values). actives 0.17% (n = 300,000). AID 1554, 2009;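 active = replicate mean above 50%; inconclusive = above 50% but judged a plate artefact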;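 also: 50 nL library stock added to about 25 µL; numbers are from one replicate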
Sa RN4220 lethal = growth inhibition of S. aureus RN4220, primary screen, OD600 | 16 h | actives 0.33% (n = 330,000) | inhibition, % (concentration not given with the values);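 active = z-score of -3 or lower and OD600 up to 0.18 on both plates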;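 also: plate controls were untreated cells for no effect and reference antibiotic for full effect; stock transfer was 100 nL into about 80 µL; one replicate is shown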
ugtP null kill = growth inhibition of ugtP-null S. aureus, primary screen, RN4220 ugtP deletion, OD600. 16 h; some inactives read as strong as hits. growth inhibition, % (test concentration not listed). actives 0.54% (n = 330,000). AID 1259309, 2017;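 active = z-score under -3 and OD600 up to 0.15 on both plates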;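 also: plate controls were untreated wells for no effect and antibiotic for full effect; wells of about 80 µL received 100 nL stock; the first replicate is given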
Bead autofluor = counter-screen for toxin protease inhibitors: compound fluorescence | compound autofluorescence counterscreen, microsphere flow cytometry; active compounds read high | fluorescence intensity (no concentration beside the values) | actives 3.1% (n = 360,000);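 active = at least 3 SD above the mean of all compounds, about 16000 in these data; inconclusive = too few beads counted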;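 also: 100 nL of 1 mM stock went into each well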
PrP 5UTR inh = inhibition of PrP 5' UTR reporter expression; cell-based PrP 5' UTR mRNA reporter, plate reader; inhibition, % (test concentration not listed); actives 0.35% (n = 340,000);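 active = every replicate at 50% or more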;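 also: 0 = median of the neutral control wells; tested in H4 reporter cells; numbers are from one replicate; inactives centre near -14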
Mtb hypoxia inh = PubChem AID 1159583; M. tuberculosis hypoxia-regulated fluorescent reporter, fluorescence; fluorescence inhibition, % (test concentration not listed); actives 0.1% (n = 300,000);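 active = 35 to 45% if threefold the growth effect, above 45% if 1.5-fold the growth effect; inactive = the rest, general growth blockers included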;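 also: wells of about 50 µL received 100 nL stock; 0% = vehicle wells and 100% = reference inhibitor wells; whole bacteria with a GFP reporter of the hypoxia response; strong numbers were not always called active; many hits fall short of the cut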
Mtb hypoxia inh growth = also measured in Mtb hypoxia inh; calls as there; growth inhibition, %; measured here: M. tuberculosis growth (absorbance);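 0% = vehicle and 100% = reference antibiotic; read after six days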
* marks the source's active call; other numbers are inactive results; ? = inconclusive; / = not tested or not shown; & = joins results of further samples; ! = not active in a repeat.

Order of results: PrP 5UTR inh, ugtP null kill, BJeLR viability, Mtb hypoxia inh growth, Bead autofluor, Sa RN4220 lethal, Mtb hypoxia inh
1. Cc1ccc(S(=O)(=O)NCCC(=O)NCC(c2cccs2)N(C)C)cc1 (stereo unspecified)
    -13, 4, /, -1, 3049, 3.1, 4
2. Cc1ccccc1C1c2[nH]c3ccccc3c2C[C@H]2C(=O)N(c3ccccc3C(=O)NCCCN3CCOCC3)C(=O)N12 (stereo partly specified)
    -24, 5, -1, /, 4916, 1.5, /
3. O=C1NC(=O)C(=Cc2ccco2)S1
    -13, 0, /, 0, 3184, 4.3, -2
4. O=C(COc1ccc(S(=O)(=O)NC2CCCCC2)cc1Cl)NCc1ccc2c(c1)OCO2
    /, -9, -10, 10, 10786, -2.7, 3
5. COc1ccc(N(C(=O)Cc2cccs2)C(C(=O)NC2CCCCC2)c2cccn2C)cc1OC (stereo unspecified)
    -1, 3, 9, 1, 3533, -3.0, 9
6. CCCCN(CC)CCCNC(=O)CS(=O)(=O)Cc1nc(-c2cccc(OC)c2)oc1C
    -22, -9, 2, 10, 9393, 1.2, 12
7. CCCCSc1nnc(-c2c[nH]c3ccccc23)n1C
    -45, 4, 14, 18, 5828, 12, 2
8. Cc1ccc(NC(=O)COC(=O)COc2cccc3c2OC(C)(C)C3)cc1S(=O)(=O)N1CCOCC1
    -18, 0, 3, -3, 7057, 3.3, -4
9. CC1Cc2ccccc2N1C(=O)C12CCC(C)(C(=O)C1)C2(C)C (stereo unspecified)
    -20, 3, -2, 0, 7148, 3.4, 7
10. O=C(NCCO)c1nc(NCCO)c2ccccc2n1
    -5, 1, -9, -1, 10924, 2.7, -2
11. O=C1c2cccc([N+](=O)[O-])c2C(=O)N1c1ccccc1
    -24, 3, 3, 11, 2293, -2.0, -2
12. CCOC(=O)NN=Cc1ccccc1OC/C=C/c1ccccc1
    /, 8, /, 3, /, 35, 12
13. COc1cccc(OCC(O)CN2CCc3ccccc3C2)c1 (stereo unspecified)
    -9, 11, -4, -9, 4657, 4.8, 4
14. Cc1cccnc1NC(=O)c1sc2ccccc2c1Cl
    -120, -10, 4, 0, /, 1.5, 2
15. COc1ccc(S(=O)(=O)N2CCN(Cc3cccc(OC)c3)CC2)cc1
    5, 3, -13, 3, /, 1.6, 0
16. CCCc1cc(=O)[nH]c(SCC(=O)Nc2cc(S(=O)(=O)N(CC)c3ccccc3)ccc2Cl)n1
    -17, -11, /, -2, 3932, 12, -4
17. CCN(CC)CCNS(=O)(=O)c1ccc2[nH]cc(C(=O)O)c(=O)c2c1
    -26, 12, 2, -3, 8295, 1.4, 8
18. CN(Cc1ccccc1)c1nc2c(c(=O)[nH]c(=O)n2C)n1CCOc1ccccc1
    -4, 0, -4, 5, 3193, 4.1, 8
19. Cc1ccnc(SCC(=O)O)n1
    -30, 4, -10, 3, 9605, 2.7, 3
20. COc1ccccc1NC(=O)NCCCl
    -29, 0, -3, 0, 5421, 2.8, 7
21. CCOCCCN(CCC#N)S(=O)(=O)c1ccc(S(=O)(=O)N2CCCC2)cc1
    -6, 5, 5, -8, 6317, 3.7, -6
22. O=C(CCS(=O)(=O)c1ccc(Br)cc1)NC1CCCC1
    6, 4, -2, 4, 8269, 5.7, 10
23. C#Cc1ccc(C2C=C(C(=O)N3CCN(Cc4ccccc4)CC3)OC(OCC)C2CCCO)cc1 (stereo unspecified)
    /, 4&-24, /, 9&8, /, 6.7&0.2, 5&3
24. COc1cc(C=NNC(=S)NCCN2CCOCC2)ccc1O
    /, 11, /, 7, /, -0.5, 10
25. Nc1nc(NC(=O)Cc2ccccc2)nn1-c1ccccc1
    -12, 4, -1, /, 3955, 0.2, /
26. COc1ccc(/C=C2\CCc3ccccc3C2=O)cc1Cn1cccn1
    -1, 5, 1, 6, 6792, 4.1, 9
27. O=C(O)c1cccc(NC(=O)c2ccc3c(c2)C(=O)N(CC2CCCO2)C3=O)c1 (stereo unspecified)
    5, 2, -5, 10, 4618, 2.9, 16
28. CC(C)NC(=O)Nc1ccc2c(c1)C(=O)N([C@H](C)CO)C[C@H](C)[C@@H](CN(C)C(=O)Nc1ccc(C(F)(F)F)cc1)O2
    -13, 0, /, 4, 4269, 1.8, 4
29. Cc1cc(C)c(C(=O)CN2C(=O)NC3(CCCCCC3)C2=O)cc1C
    -43, -3, 11, 5, 4753, 6.1, -1
30. CSCCC(NC(=O)c1ccc([N+](=O)[O-])cc1Cl)C(=O)OCC(=O)N1CCN(C(C)=O)CC1 (stereo unspecified)
    -13, 10, 6, -5, 5884, 2.4, 13
31. Cc1ccc(C(=O)Nc2ccc(Cl)cn2)cc1
    -50, 4, 8, 15, 11134, 6.7, 10
32. CCc1nc(C)c(C(=O)N2CCCC(C(=O)Nc3cccc(-c4cccc(C)c4)c3)C2)o1 (stereo unspecified)
    -23, -5, -8, -1, 4859, 5.4, -3
33. COc1ccccc1CNC(=O)COc1cccnc1[N+](=O)[O-]
    -10, 2, 1, 1, 5315, 6.8, -3
34. CCOC(=O)c1sc2nc3c(SCCC(=O)O)cc(C(=O)c4cc(OC)ccc4O)cn3c(=O)c2c1C
    -15, -1, 23, 3, 5165, 7.0, 8
35. O=C(CNc1ccccc1)NN=Cc1ccc2c(c1)OCCO2
    /, 0, /, 7, /, 9.9, 7
36. CCn1ncc(CN2CCN(C(=O)Nc3ccccc3C(=O)OC)CC2)c1C
    -2, 0, -1, 3, 9925, 0.0, 4
37. O=C(Nc1ccc(Oc2ccccc2)nc1)C1CCCCN1Cc1cccc(OCCO)c1 (stereo unspecified)
    -2, 0, -2, 2, 5656, 1.2, 15
38. COc1ccc(CS(=O)(=O)CC(C)(O)c2ccccc2)cc1 (stereo unspecified)
    -8, 6, 18, -3, 3127, 1.5, 8
39. N#Cc1ccc(-c2ccc(OCC(=O)NCCc3ccccc3)cc2)cc1
    -19, -2, -11, 19, 2281, 4.0, 6
40. Cc1ccc(Sc2c([N+](=O)[O-])ncn2C)cc1
    -20, 3, -19, 1, 15373, 2.0, 9

A different layout for some results above:
28. CC(C)NC(=O)Nc1ccc2c(c1)C(=O)N([C@H](C)CO)C[C@H](C)[C@@H](CN(C)C(=O)Nc1ccc(C(F)(F)F)cc1)O2
29. Cc1cc(C)c(C(=O)CN2C(=O)NC3(CCCCCC3)C2=O)cc1C
30. CSCCC(NC(=O)c1ccc([N+](=O)[O-])cc1Cl)C(=O)OCC(=O)N1CCN(C(C)=O)CC1 (stereo unspecified)
31. Cc1ccc(C(=O)Nc2ccc(Cl)cn2)cc1
32. CCc1nc(C)c(C(=O)N2CCCC(C(=O)Nc3cccc(-c4cccc(C)c4)c3)C2)o1 (stereo unspecified)

Compound,28,29,30,31,32
PrP 5UTR inh,-13,-43,-13,-50,-23
ugtP null kill,0,-3,10,4,-5
BJeLR viability,/,11,6,8,-8
Mtb hypoxia inh growth,4,5,-5,15,-1
Bead autofluor,4269,4753,5884,11134,4859
Sa RN4220 lethal,1.8,6.1,2.4,6.7,5.4
Mtb hypoxia inh,4,-1,13,10,-3

Next entries.
Order of results: PrP 5UTR inh, ugtP null kill, BJeLR viability, Mtb hypoxia inh growth, Bead autofluor, Sa RN4220 lethal, Mtb hypoxia inh
41. Nc1cc(N2CCCC2)ccc1[N+](=O)[O-]
    -9, 4, -14, -1, 3136, 0.0, 7
42. O=C(Cn1cc(CCO)nn1)N1CCNCC1
    -15, -5, 1, -4, 4176, -1.7, -14
43. O=c1cccc2n1CC1CC2CN(S(=O)(=O)c2ccc(F)cc2)C1 (stereo unspecified)
    -14, -2, 4, 16, 4467, 2.9, 4
44. Cc1c(C(=O)N2CCC3(CC2)OCCO3)sc2ncnc(N3CCN(c4ccccn4)CC3)c12
    -27, 1, /, 1, 9357, 1.6, -5
45. c1ccc2[nH]c(-c3ccnc4ccccc34)nc2c1
    -44&-20, -8&-9, -3&11, -4&0, 17421*!, 4.7&8.1, -3&-5
46. Cc1ccc(C(=O)/C=C\NCc2ccccc2)cc1
    -72, /, 3, /, 2249, /, /
47. O=C(CN1CCN(S(=O)(=O)c2ccccc2)CC1)Nc1ccccc1Cl
    -7, 0, 6, 0, 4085, -0.7, -1
48. COc1ccc(/C=N/NC(=O)Cn2cc(C(F)(F)F)ccc2=O)cc1
    -8, /, 1, /, 4018, /, /
49. CSc1nnc(-c2cc(Br)ccc2N=Cc2c(C)[nH]n(-c3ccccc3)c2=O)c(=O)[nH]1
    -6, 1, -4, 3, 4766, 3.0, 1
50. CCOC(=O)CC1COCCN1C(=O)c1ccc2oc(Cc3ccccc3)nc2c1 (stereo unspecified)
    -38, /, -1, /, 6213, /, /
51. Cc1nc(SCC(=O)Nc2cc(Cl)ccc2[N+](=O)[O-])nc(C)c1C
    -31, -7, -3, 6, 2597, 2.5, 15
52. Cc1cccc(C=NNC(=O)C(C)Nc2cccc3ccccc23)n1 (stereo unspecified)
    /, -2, /, 7, /, 3.9, 1
53. COc1ccc(C(C)=NNC(=O)c2ccc(NS(=O)(=O)c3cccs3)cc2)cc1
    /, 9, /, -6, /, -1.8, 1
54. COC(=O)c1ccc(COC(=O)CSCC(=O)Nc2ccc(C)cc2C)cc1
    4, 8, /, 0, 4255, 5.7, 1
55. CCOC(=O)N1CCN(C(=O)CSc2ccc3nnc(-c4cccnc4)n3n2)CC1
    -5, 2, -1, -3, 3978, 2.0, 10
56. COc1cc2c(cc1OC)C(C)N(C(=S)NC(=O)c1ccccc1)CC2 (stereo unspecified)
    -8, -2, 1, -3, 4517, 9.5, -7
57. CC(=O)Nc1nc(Cn2nnc(-c3ccc4c(c3)OCO4)n2)nc(N(C)C)n1
    -5, /, 15, /, 3399, /, /
58. COc1ccc(S(=O)(=O)N2CCCCC2)cc1NC(=O)CCCNC(=O)c1ccc(Cl)cc1
    -9, 2, /, 0, 9140, 3.8, 6
59. CC1CCc2nc(NC(=O)Cc3cccs3)sc2C1 (stereo unspecified)
    -112, -5, -11, /, 4501, -0.7, /
60. CCCCNC(=O)c1cc(-c2ccc3c(c2)OCO3)on1
    -20, 5, 0, 8, 3694, 0.9, 14
61. COC(=O)C(Cc1cncn1COCc1ccccc1)NC(=O)OC(C)(C)C (stereo unspecified)
    -13, 2, -6, 3, 3166, 1.5, 10
62. COCc1cc(C)[nH]c(=O)c1C#N
    -10, -1, 7, /, 2725, 1.1, /
63. O=C(CSc1nnc2ccc(-c3ccccn3)nn12)NCCc1ccccc1
    4, 0, -2, 6, ?, 3.0, -9
64. Cc1ccc(CSCC(=O)N2CCCC2)cc1
    -18, 4, 2, 1, 2473, 4.1, 12
65. CCOc1ccc(NC(=O)CCNC(=O)c2ccco2)cc1
    -18, 2, 2, 7, 3741, 0.7, 14
66. OC1C[N+]2(CCCCC2)C1
    -21, 1, -6, 3, 9639, 4.5, 4
67. CC(OC(=O)CCc1nc2ccccc2c(=O)[nH]1)C(=O)Nc1cccc(C(F)(F)F)c1 (stereo unspecified)
    -19, 5, /, 3, 3790, 4.5, 14
68. COc1cccc(CN2CCN(Cc3ccc(C)o3)CC2CCO)c1 (stereo unspecified)
    -22, 7, 6, -8, 5215, 2.3, 7
69. Cn1nc(-c2ccccc2)c(CO)c1Oc1cccc(C(F)(F)F)c1
    -21, 3, 0, 2, ?, 1.7, 5
70. COC(=O)c1cc(=O)c2c(C)nc(C(Cl)(Cl)Cl)nc2[nH]1
    -9, -8, -1, -6, 3583, -2.3, -9
71. CC1(C)CC(=O)C=C(NCCCN2CCCC2=O)C1
    -3, 8, 8, -3, 10632, 2.1, 17
72. CCOc1ccc(NC(=O)c2cccs2)c([N+](=O)[O-])c1
    -148, -1, 9, 6, 3108, 6.4, 0
73. CN(C)c1nc(-c2cccnc2)nc(-c2ccccc2)c1C#N
    6, 7, 0, 5, 3955, 2.3, -1
